# Bioassay records as filed in PubChem.
# NPYLR7 agonist: activates Aedes aegypti NPYLR7 receptor. HEK293T NPYLR7/Galpha15, GCaMP6s calcium fluorescence. activation, % at 10 µM. 270,000 tested, 0.15% active; in the data active = activation above about 40%;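 also: 0% = vehicle and 100% = reference agonist at the receptor; some compounds past the cut are filed as inactive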
# NPYLR7 agonist max-min: also measured in NPYLR7 agonist; calls as there; activation, %; measured here: Max-Min RFU normalised activation; some inactives read as strong as hits;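 span of the calcium signal over five minutes; 0% = vehicle and 100% = native peptide agonist; compound fluorescence can raise it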
# Numbers without * were called inactive. An excerpt; the hit share may differ from the screen's.
SMILES,NPYLR7 agonist,NPYLR7 agonist max-min
CCOc1cn2c(cc1=O)C(=O)N(CCNC(=O)c1ccc(Cl)cc1)CC2,12,1
COC(=O)c1cccc(CN2CCCC2c2ccccn2)n1 (stereo not given),0,0
CC1C(c2ccccc2)CCN1C(=O)C1=CN2CCS(=O)(=O)N=C2C=C1 (stereo not given),-1,-8
COc1ccc(-c2nc3sc(CCNS(=O)(=O)c4ccc(C)c(C)c4)c(C)n3n2)cc1,1,-2
N#CC(C#N)C(c1ccsc1)c1c(-c2ccccc2)[nH][nH]c1=O (stereo not given),1,3
O=C(Nc1cccc(Cl)c1)N(Cc1ccccc1)Cc1c(-c2ccccc2)noc1N1CCCC1,-3,1
CC1(C(=O)Nc2ccc(Cl)c(Cl)c2)CCN1Cc1cccc2c1OCO2 (stereo not given),8,-1
CC=CCSc1nc2c(c(=O)n(C)c(=O)n2C)n1Cc1ccccc1Cl,-2,-2
COc1ccnc(N2CCCC(CO)(Cc3ccc(F)cc3)C2)n1 (stereo not given),0,0
CCC(=O)Nc1ccc(-c2nc3cc4c(cc3c(C)c2Cl)OCO4)cc1,10,8
CCCCCCCC(=O)NC(C(=O)Nc1nnc(-c2ccc(Cl)cc2)s1)C(C)CC (stereo not given),9,15
Cc1csc(SCc2cc(=O)c(OC(=O)c3cccc([N+](=O)[O-])c3)co2)n1,-7,-11
CC1CN(C)CCN1CC(O)c1cccc(Br)c1 (stereo not given),3,2
Cn1c(=NNC(=O)c2ccccc2F)sc2ccccc21,9,6
COc1ccc(OCCn2c(=O)oc3ccc(C)cc32)cc1,-2,3
Cc1cnc(C(=O)N2CCCC(C(=O)Nc3ccc(-c4cccc(F)c4)cc3)C2)cn1 (stereo not given),15,24
COc1ccc(NC(=O)[C@@H](C)N2Cc3ccc(N4CCOCC4)nc3C2=O)cn1,7,4
CN(Cc1cccc(Cl)c1Cl)C(=O)c1ccc(=O)[nH]c1,14,8
CCN(CC)C(=O)[C@@H]1C[C@H](n2cc(C3CCCCC3)nn2)CN1,3,2
Cc1nn(-c2cccc(F)c2)c(N2CCN(C)CC2)c1CN(CCC(C)C)S(=O)(=O)c1ccc(Br)cc1,1,6
COC(C)c1nc(CN(C)C(=O)c2c(O)cc(F)cc2F)cs1 (stereo not given),0,1
COc1ccc(-c2nc3ccc(C)cn3c2NC(=O)c2cc(Cl)cc(Cl)c2)cc1OC,-8,-1
COCCN(CCOC)C(=O)c1cc2c(s1)CCC(C)C2 (stereo not given),-2,-2
CCOCCCn1c(SCc2c(F)c(F)c(F)c(F)c2F)nc2cc(S(=O)(=O)N3CCCC(C)C3)ccc21 (stereo not given),2,-3
CC(C)(C)c1cc(NS(=O)(=O)c2cc3c(cc2Cl)OCCCO3)on1,0,17
COC(=O)c1ccccc1C(=O)N1CCC(CCC(=O)NC2CC2)CC1,2,-1
CCN(CCn1cccn1)Cc1nc(-c2ccc(C(F)(F)F)cc2)oc1C,-10,-12
CC(C)C(=O)NCCNc1ccc(C(F)(F)F)cc1[N+](=O)[O-],-9,-9
CCC(NC(=O)C1CC(=O)N(c2cccc(Cl)c2)C1)c1nnc2n1CCCCC2 (stereo not given),2,2
Cn1c2ccccc2n2c(=N)c3ccccc3c(C#N)c12,3,-5
Cc1cc([N+](=O)[O-])cc(S(=O)(=O)NNC(=O)c2cn(C)c3ccccc23)c1C,3,2
COc1cccc(Cc2nsc(N3CCN(C(=O)c4ccc(Br)cc4)CC3)n2)c1,-9,-7
COc1cccc(CNC(=O)CCC2CCCN(C(=O)c3ccc4ncccc4c3)C2)c1 (stereo not given),1,-2
O=C1OC(c2cccc(F)c2)=NC1=CC1=Cc2cc(Cl)ccc2OC1,10,8
CC1CCCN(Cc2ccc(NS(=O)(=O)c3ccccc3Cl)cc2)C1 (stereo not given),-4,-4
O=C(Nc1ccnc(=O)[nH]1)c1ccccc1,3,2
O=C(COC(=O)C1(c2ccc3c(c2)OCCO3)CCCC1)N1CCNC1=O,11,4
COC(=O)C1OC(=O)C(C(=O)OC(C)(C)C)C1c1ccccc1 (stereo not given),3,9
O=C(NCc1cn2c(n1)SCC2)c1cccc2ccnn12,-3,-7
O=C(NCc1ccco1)c1coc(CN(CCN2CCOCC2)Cc2ccc(Cl)cc2)n1,9,5
CC(C)(C)P(=O)(Cc1ccccc1)C(C)(C)C,3,3
Cc1cc2[nH]c(O)c(N=NC(=O)c3ccccc3C)c2cc1Br,-2,-10
CC(C)(C)c1ccc(-c2n[nH]c3c2CN(C(=O)CCc2cc(=O)[nH]o2)CC3)cc1,20,1
O=C(c1cccc(Br)c1)N(Cc1ccco1)Cc1c(-c2ccccc2)noc1N1CCCC1,3,3
C=CCN1C(=O)C(=Cc2ccncc2)SC1=S,-3,-2
Cc1nn(-c2ccccc2)c2c1C(c1ccc(Cl)cc1)C(C#N)C(=N)O2 (stereo not given),1,-2
C=CCn1c(SCc2cc(=O)c(O)co2)nnc1-c1ccncc1,1,1
CN1CCN(c2ccc(C(F)(F)F)cc2NC(=O)CCc2ccccc2)CC1,1,1

# Arranged by molar mass (low to high): 15 of the compounds above.
SMILES,NPYLR7 agonist,NPYLR7 agonist max-min
O=C(Nc1ccnc(=O)[nH]1)c1ccccc1,3,2
CC(C)(C)P(=O)(Cc1ccccc1)C(C)(C)C,3,3
C=CCN1C(=O)C(=Cc2ccncc2)SC1=S,-3,-2
COC(=O)C1OC(=O)C(C(=O)OC(C)(C)C)C1c1ccccc1 (stereo not given),3,9
O=C1OC(c2cccc(F)c2)=NC1=CC1=Cc2cc(Cl)ccc2OC1,10,8
Cc1nn(-c2ccccc2)c2c1C(c1ccc(Cl)cc1)C(C#N)C(=N)O2 (stereo not given),1,-2
Cc1cc2[nH]c(O)c(N=NC(=O)c3ccccc3C)c2cc1Br,-2,-10
O=C(COC(=O)C1(c2ccc3c(c2)OCCO3)CCCC1)N1CCNC1=O,11,4
CC1CCCN(Cc2ccc(NS(=O)(=O)c3ccccc3Cl)cc2)C1 (stereo not given),-4,-4
CN1CCN(c2ccc(C(F)(F)F)cc2NC(=O)CCc2ccccc2)CC1,1,1
CC(C)(C)c1ccc(-c2n[nH]c3c2CN(C(=O)CCc2cc(=O)[nH]o2)CC3)cc1,20,1
Cc1cc([N+](=O)[O-])cc(S(=O)(=O)NNC(=O)c2cn(C)c3ccccc23)c1C,3,2
O=C(NCc1ccco1)c1coc(CN(CCN2CCOCC2)Cc2ccc(Cl)cc2)n1,9,5
COc1cccc(Cc2nsc(N3CCN(C(=O)c4ccc(Br)cc4)CC3)n2)c1,-9,-7
O=C(c1cccc(Br)c1)N(Cc1ccco1)Cc1c(-c2ccccc2)noc1N1CCCC1,3,3

# Following part.
SMILES,NPYLR7 agonist,NPYLR7 agonist max-min
O=c1[nH]c2ccc(S(=O)(=O)NC3CCCC3)cc2[nH]1,13,2
Cc1c(C(=O)NCc2ccco2)cnn1-c1ccccc1,-20,-9
O=C(CSc1nnc(-c2cccs2)n1C1CC1)Nc1ccccc1,4,5
O=C(Nc1ccc(Br)cc1C(F)(F)F)C1CC1,-6,-7
Cc1ccn(-c2ccc(N3CCN(C(=O)c4ccc(F)cc4)CC3)nn2)n1,-6,-10
CC(=O)c1ccc(CN(C)Cc2nc3ccc(Cl)cc3[nH]2)cc1,-1,-4
COc1ccc(C2=NOC(C)([C@H]3CC=C(C)/C(=N/NC(=O)c4cccs4)C3)C2)cc1 (stereo not given in full),0,23
COc1ccc(-n2c(SCc3cc(F)ccc3F)nnc2-c2ccccc2C)cc1,-8,-17
CC(=O)N(C)Cc1cccc(NS(=O)(=O)N2CCCCCC2)c1,7,5
CCN(CC)c1ncnc2c1cnn2Cc1ccc(Cl)cc1,-1,-2
CCC(CC)N(C(=O)CCc1c(C)nc2c(C#N)cnn2c1C)C1CC1,0,1
CCCCCc1ccc(C(=O)N2CCN(c3nc4nccc(-c5ccc6c(c5)OCO6)n4n3)CC2)cc1,5,3
O=C(O)c1cccnc1CN(Cc1ccc2c(c1)OCO2)C1CC1,-5,-7
CC(c1cccc(O)c1)N(C)CCc1ccncc1 (stereo not given),0,-4
COc1ccccc1CN(CCc1c[nH]c2ccccc12)C(=O)CN(C(=O)c1ccc([N+](=O)[O-])cc1)C1CC1,27,44
O=C(NCCNc1nc(-c2cccs2)nc2cc(Cl)ccc12)Nc1ccc(F)cc1F,4,15
CCc1cc(Oc2ccc3c(c2)OCO3)nc(SCc2ccccc2C#N)n1,-1,5
Cc1ccc(-n2nc(C(=O)NCCc3ccccn3)c(=O)n(Cc3cccnc3)c2=O)cc1,2,6
Cc1ccc(C)c(S(=O)(=O)n2nc(C)c(S(=O)(=O)N3CCC(C)CC3)c2C)c1,6,3
Cc1nc(C)c2c(n1)OC(CN1CCc3[nH]nc(-c4ccccc4F)c3C1)C2 (stereo not given),8,6
COCCCN(CC(=O)N(CCc1c[nH]c2ccccc12)Cc1ccccc1)C(=O)c1cccc(OC)c1,17,14
COc1ccc(S(=O)(=O)Oc2cccc(CN(Cc3ccco3)C(=O)Nc3ccccc3OC)c2)cc1,4,11
CN(C)c1nc(-c2ccccc2)nc2c1CN(C(=O)C(c1ccccc1)c1ccccc1)CC2,-10,-14
COc1cc(C=C2SC(=S)NC2=O)cc(OC)c1,1,-3
CC(C)c1csc(NC(=O)Cn2cnc3ccccc3c2=O)n1,17,10
O=C1c2sc3nncc(=O)n3c2C(=O)N1c1ccc(I)cc1,8,7
CN(CCOc1ccc(Br)cc1)C(=O)CNC(=O)c1ccc2c(c1)OCO2,-6,-6
COCC1(C(=O)N2CCN(C)C(C(=O)O)C2)CCC1 (stereo not given),13,10
CCn1c(C2CCCN(C(=O)c3coc4c3C(=O)CCC4)C2)nn(C)c1=O (stereo not given),6,5
Cc1ccc(C(=O)CSc2nccn(-c3ccc(C)c(C)c3)c2=O)cc1,-9,-13
CN(C(=O)NCCOc1cccc(C(C)(C)C)c1)C1CCOCC1,7,3
CCc1ccc2nc(N(Cc3ccccn3)C(=O)Cc3ccc(S(=O)(=O)CC)cc3)sc2c1,-3,-8
N=c1scc(-c2cccs2)n1CCCS(=O)(=O)O,3,0
COc1cccc(OCCCOc2ccc([N+](=O)[O-])cc2)c1,-6,7
CCOC(=O)c1c(NC(=O)c2ccco2)sc(C(=O)Nc2ccccc2C)c1C,-6,-8
CC(C)c1ccc(-n2c(COc3ccccc3)n[nH]c2=S)cc1,-7,-16
O=C1N(CCO)CCCC[C@]12C[C@H](CO)[C@H](c1ccccc1)N2S(=O)(=O)c1ccccc1,0,8
Cc1cc(C)nc(SCc2cc(=O)c(OC(=O)/C=C/c3ccccc3)co2)n1,-15,-10
CNc1cccc(-c2c(OC)cccc2OC)n1,2,1
CCNC(=O)c1ccccc1OCC(=O)Nc1ccc(Cl)cc1OC,-2,0
CCC(C)NC(=O)CSc1nnc(-c2cc(Cl)sc2Cl)c(=O)[nH]1 (stereo not given),-1,-2
C=CCn1c(SCC(=O)OC)nc2c1c(=O)[nH]c(=O)n2C,1,1
COc1ccc(CCN2CCCC(CN(C)Cc3nc4ccccc4nc3C)C2)cc1 (stereo not given),4,0
O=C(c1ccco1)N(Cc1ccc(F)cc1)Cc1ccccc1OS(=O)(=O)c1ccc(F)cc1,17,7
CCC(C)(C)C1CCC(Nc2ccc3nnnn3n2)CC1 (stereo not given),10,9
Cc1nc2c(C(=O)N(C)CCCn3cccn3)cccc2[nH]1,-1,16
CCOC(=O)CNC(=O)N1CCC(CCC(=O)N(C)Cc2ccccc2)CC1,5,2
Cn1cc(/C=C2/CCO/C(=C/c3cnn(C)c3)C2=O)cn1,25,18
ClCc1cc(-c2cc3ccccc3o2)on1,-4,-4
Cc1sc2nc(CN3CCC(C)CC3)nc(N3CCC4(CC3)OCCO4)c2c1C,-2,-3
c1ccc2c(c1)N(Cc1ccno1)CCCN2Cc1ccno1,4,2
CC(C)=CC1C(C(=O)N2CCc3nnc(N)cc3C2)C1(C)C (stereo not given),6,1
COc1cc(/C=N\N2CCCCC2)ccc1OCc1ccccc1Cl,2,2
COC[C@H]1CCC[C@H]1Nc1nc(C)nc2c1CCNC2,0,0
CC(=O)Nc1ccc(OCC(=O)NCCc2c(F)cccc2F)cc1,-1,-3
O=C(c1sc(=S)n2c1[nH]c(=O)c1ccccc12)N1CCCC1,6,4
Cc1ccccc1NC(=O)Cn1nc(C)c2ccccc2c1=O,6,5
CCCN(Cc1c(C)nn(-c2ccccc2)c1N1CCN(C)CC1)S(=O)(=O)c1ccc(Cl)cc1,0,5
CCOc1cc(C=C2N=C(c3ccc(C)cc3)OC2=O)ccc1OC(C)C(=O)N(C)C (stereo not given),0,7
COc1ccc(CNC(=O)c2sc(=O)n(Cc3ccccc3F)c2C)cc1OC,7,2
# Further records.
SMILES,NPYLR7 agonist,NPYLR7 agonist max-min
CCOC(=O)CN1CCN(C(=O)c2cn(C)cc3c(=O)n(-c4ccccc4)nc2-3)CC1,-1,-6
CC1CC(C(N)=O)c2ccccc2N1C(=O)CSCc1cccs1 (stereo not given),-6,-5
Cc1nonc1C1CCCN1Cc1nc(-c2ccco2)oc1C (stereo not given),-1,-2
Cc1nc(-c2ccc3c(c2)CCN3S(=O)(=O)c2ccc(Cl)cc2F)cs1,-10,-13
Cc1oc(-c2ccccc2)nc1COC(=O)c1ccc2c(c1)OCC(=O)N2,-2,-5
CCCc1cnc2c(c1SCCN(CC)CC)c(=O)n(C)c(=O)n2C,-6,-5
COCCNCc1nccn1Cc1c(C)cc(C)cc1C,-3,10
COc1ccc(-c2noc(-c3ccc(NCc4ccncc4)nc3)n2)cc1,7,-5
COc1ccc(-c2nc3scc(CCNS(=O)(=O)c4ccc(Cl)cc4)n3n2)cc1,-9,-6
COc1ccc(-c2ccc(-c3nc(-c4ccccc4Cl)no3)cc2)cc1,-3,-5
CCOC(=O)c1c(NC(=O)COC(=O)c2cccc(O)c2)sc2c1CCCC2,5,3
COc1cc(C)c(S(=O)(=O)NCc2ccco2)c(C)c1,1,-1
CCOc1ccc(NC(=O)c2cccc(C)n2)cc1S(=O)(=O)N(CC)CC,-2,-2
CCCCCN(C(=O)Nc1ccc(Cl)cc1Cl)C(CC)c1nc2ccccc2c(=O)n1-c1ccc(OC)cc1 (stereo not given),-4,-7
Cn1c(CC2CCNCC2)nnc1SCc1noc(C2CCCO2)n1 (stereo not given),-2,-8
